DUX4 txn inh – inhibitors of DUX4-driven ZSCAN4 reporter expression, primary screen, 293T cells, Gaussia and Italica luciferase; 293T-iDUX4 ZSCAN4-Gaussia luciferase reporter, 24 h; stronger effect = lower value; activity change, negative = inhibition, % (concentration not given with the values); AID 1224904, 2016; actives 0.8% (n = 37,000);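 active means -10% or lower and over 25 points stronger than a control reporter; inconclusive means -10% or lower with a smaller gap; inactive means above -10%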;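 further: 0% = median of neutral control wells and -100% = median of positive control wells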
DUX4 txn inh difference – second read-out of DUX4 txn inh, no call of its own (marks repeat the call); Gaussia minus Italica difference, %; measured here: selective DUX4 reporter inhibition;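 worked out from the two reporters; negative = selective loss of the DUX4 reporter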
DUX4 txn inh control – also measured in DUX4 txn inh; calls as there; activity change, negative = inhibition, %; measured here: Italica tet-on control reporter;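 0 = neutral control and -100 = positive control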
* = called active by the depositor; ? = inconclusive; . = not tested or not shown; & = joins results of further samples.

SMILES	DUX4 txn inh	DUX4 txn inh difference	DUX4 txn inh control
Cc1cccc(CN(C)C[C@H]2OCc3cn(nn3)CCCC(=O)N([C@H](C)CO)C[C@H]2C)c1	-2	-3	1.0
O=C(C[C@H]1CC[C@@H]2[C@H](COC[C@@H](O)CN2Cc2ccncc2)O1)NCc1ccncc1	17	14	3.2
COC(=O)[C@H]1[C@H](CO)[C@H]2Cn3c(ccc(-c4ccccc4F)c3=O)[C@H]2N1C(=O)c1cnccn1	-2	2	-3.7
O=C(c1ccncc1)N1CC[C@@H]2[C@@H](CO)Nc3ccc(-c4ccccc4)cc3[C@@H]21	-1	15	-16
CCCNC(=O)[C@H]1[C@H](CO)[C@H]2Cn3c(cccc3=O)[C@@H]1N2S(=O)(=O)c1ccccc1C	-5	-6	0.2
N#Cc1cccc(-c2ccc([C@H]3[C@@H](CO)N[C@@H]3CNC(=O)C3CCC3)cc2)c1	0	1	-0.8
COCC(=O)Nc1ccc2c(c1)OC[C@H](C)N(CCC(F)(F)F)C[C@H](C)[C@H](OC)CN(C)C2=O	2	-2	4.4
C[C@@H]1CC(=O)N[C@@H](c2ccccc2)C/C=C\C[C@H](c2ccc3c(c2)OCO3)NC1=O	4	-1	4.8
CO[C@H]1CC[C@@H]2CCN(C)C(=O)C[C@@H](c3ccccc3)CN(C)C(=O)c3cccc(C#N)c3OC[C@H]1O2	7	2	4.5
CN(C)CC(=O)N1[C@H](C#N)[C@H](c2ccc(-c3ccccc3F)cc2)[C@@H]1CO	-2	1	-2.9
C[C@@H]1CN([C@@H](C)CO)C(=O)c2cc(NC(=O)Cc3ccccc3)ccc2O[C@@H]1CN(C)S(C)(=O)=O	2	1	0.8
C[C@H](CO)N1C[C@H](C)[C@@H](CN(C)C(=O)Nc2ccc(C(F)(F)F)cc2)OCCCC[C@H](C)Oc2ccc(N(C)C)cc2C1=O	1	4	-3.0
C[C@@H]1CN([C@H](C)CO)C(=O)c2cc(NS(=O)(=O)c3cn(C)cn3)ccc2O[C@@H]1CN(C)CC1CCCCC1	0	0	0.3
O=C(N[C@H]1CC[C@H](CCNC(=O)C2CCOCC2)O[C@@H]1CO)c1ccccn1	-2	1	-2.5
Cc1ccc(S(=O)(=O)N(C)C[C@@H]2Oc3ccc(NC(=O)Nc4ccc(C(F)(F)F)cc4)cc3CC(=O)N([C@@H](C)CO)C[C@@H]2C)cc1	0	1	-1.8
O=C(c1cnccn1)N1CC(=O)N2[C@H](CO)[C@@H](c3ccc(/C=C/c4ccccc4)cc3)[C@@H]2C1	?	.	.
Cc1noc(C)c1S(=O)(=O)Nc1ccc2c(c1)C(=O)N([C@@H](C)CO)C[C@H](C)[C@@H](CN(C)C(=O)NC1CCCCC1)O2	1	-2	2.7
CO[C@H]1CN(C)C(=O)c2ccc(NC(=O)c3cc(C)on3)cc2OC[C@@H](C)NC[C@H]1C	3	3	0.4
CN1CCN(C(=O)C[C@H]2C=C[C@@H](NC(=O)Nc3ccccc3F)[C@H](CO)O2)CC1	1	1	0.3
CNC[C@@H]1Oc2cc(C#Cc3ccccc3OC)ccc2S(=O)(=O)N([C@H](C)CO)C[C@H]1C	-6	-1	-5.1
COc1ccc2c3c(n(C)c2c1)[C@H](CO)N(S(=O)(=O)c1cn(C)cn1)CC31CCN(C)CC1	14	7	6.6
O=C(c1cnccn1)N1CC(=O)N2[C@H](C1)[C@H](c1ccc(C#CCC3CCCC3)cc1)[C@@H]2CO	2	-3	4.8
O=C(C[C@H]1C[C@H]2c3cc(NC(=O)CC4CC4)ccc3O[C@H]2[C@H](CO)O1)NCC(F)(F)F	8	5	3.7
CCCC#Cc1ccc([C@H]2[C@@H](CO)N3C(=O)CN(C(=O)c4cccnc4)C[C@@H]23)cc1	17	8	9.2
O=C(C[C@H]1CC[C@@H]2[C@H](COC[C@@H](O)CN2C(=O)Nc2ccc(Cl)c(Cl)c2)O1)NCc1ccc(F)cc1	?	.	.
O=C(c1ccccc1F)N1CC[C@@H]2[C@@H](CO)Nc3ccc(C#Cc4ccc(F)cc4)cc3[C@@H]21	?	.	.
COc1ccc(C#Cc2ccc([C@H]3[C@@H](CO)N4C(=O)CN(C(=O)c5ccc(F)cc5)C[C@H]34)cc2)cc1	?	.	.
O=C(C[C@H]1CC[C@@H]2[C@H](COC[C@@H](O)CN2Cc2ccc(F)cc2)O1)NCc1ccccc1Cl	?	.	.
C/C=C/c1ccc([C@H]2[C@@H](CO)N(CC3CC3)C23CN(C(=O)COC)C3)cc1	9	5	4.7
C[C@@H]1CN([C@H](C)CO)C(=O)c2cc(NC(=O)Nc3cccc4ccccc34)ccc2O[C@@H](C)CCCCO[C@H]1CN(C)S(=O)(=O)c1cn(C)cn1	4	0	4.3
O=C(NC1CCCCC1)N1CC2(C1)[C@H](c1ccccc1)[C@@H](CO)N2CC1CC1	1	-1	2.2
CN(C)C(=O)C[C@H]1C[C@H]2c3cc(NC(=O)CC4CC4)ccc3O[C@H]2[C@@H](CO)O1	8	4	3.8
CO[C@@H](CN(C)C(=O)C1CCOCC1)[C@H](C)CN(C(=O)Nc1ccc(F)cc1)[C@H](C)CO	-3	-6	3.3
CC(C)NC(=O)N1[C@H](CO)[C@@H]2c3ccccc3NC[C@@H]21	6	-1	6.4
C[C@H](CO)N1C[C@H](C)[C@@H](CN(C)C(=O)NC2CCCCC2)OCc2cn(nn2)CCCC1=O	1	3	-2.5
O=C1C[C@@H](c2ccccc2)C(=O)N[C@@H](c2ccccc2)C/C=C\C[C@H](c2ccccc2)N1	3	-1	3.7
C[C@H](CO)N1C[C@H](C)[C@@H](CN(C)C(=O)c2ccc(F)cc2)OCc2ccccc2-c2c(n(C)c3ccccc23)C1=O	-8	-8	0.1
COc1ccccc1-c1cnc2c(c1)C(=O)N([C@@H](C)CO)C[C@H](C)[C@H](CN(C)C(=O)CC1CC1)O2	-2	-6	3.7
COc1ccc(S(=O)(=O)N(C)C[C@@H]2Oc3ccc(NC(=O)NC4CCCCC4)cc3CC(=O)N([C@@H](C)CO)C[C@H]2C)cc1	0	-1	1.3
CO[C@@H]1CN(C)C(=O)c2ccc(NC(=O)Nc3ccc(F)cc3)cc2OC[C@@H](C)N(C(=O)c2ccc(F)cc2)C[C@H]1C	?	.	.
O=C(Nc1cccc(Cl)c1)N1C[C@H]2[C@@H](c3ccccc31)[C@H](CO)N2C(=O)c1cccnc1	2	8	-5.3
Cc1cccc(S(=O)(=O)N2CC[C@@H]3[C@H](CO)Nc4ccc(C5=CCCCC5)cc4[C@@H]32)c1	?	.	.
CCC(=O)Nc1ccc2c(c1)OC[C@@H](C)N(CC1CC1)C[C@H](C)[C@H](OC)CN(C)C2=O	4	2	2.8
C[C@@H]1CN([C@H](C)CO)S(=O)(=O)c2ccc(C#C[C@@H](C)O)cc2O[C@H]1CN(C)C(=O)C1CCCCC1	2	5	-3.4
Cc1noc(C)c1NC(=O)N[C@H]1CC[C@H](CC(=O)N2CCN(C)CC2)O[C@H]1CO	4	2	1.9
N#C[C@@H]1[C@H](c2ccccc2-c2ccccc2)[C@H](CO)N1C(=O)NC1CCCC1	?	.	.
COc1ccccc1-c1ccc([C@@H]2[C@@H](CO)N3CCCCN(C(=O)CN4CCOCC4)C[C@H]23)cc1	12	3	8.8
COC(=O)C[C@H]1CC[C@@H]2[C@H](COC[C@H](O)CN2S(=O)(=O)c2cn(C)cn2)O1	-2	-2	-0.3
O=C(c1cnccn1)N1CC(=O)N2[C@H](C1)[C@@H](c1ccc(-c3cccc(F)c3)cc1)[C@@H]2CO	5	11	-5.8
O=S(=O)(c1ccccc1)N1[C@H](CO)[C@H]2c3ccccc3NC[C@H]21	2	-1	2.9
CO[C@@H]1CC[C@@H]2CCN(C)C(=O)[C@@H](C)CN(C)C(=O)c3cc(C#N)ccc3OC[C@H]1O2	-2	12	-14
CCCNC(=O)N(C)C[C@H]1Oc2cc(-c3cccnc3)ccc2S(=O)(=O)N([C@H](C)CO)C[C@H]1C	-1	1	-1.9
Cc1noc(C)c1S(=O)(=O)Nc1ccc2c(c1)CC(=O)N([C@@H](C)CO)C[C@H](C)[C@@H](CN(C)C(=O)Nc1cccc3ccccc13)O2	-2	1	-2.3
N#C[C@@H]1[C@H](c2ccc(C3=CCCCC3)cc2)[C@@H](CO)N1C(=O)Cc1ccncc1	5	0	4.5
O=C(C[C@H]1CC[C@@H]2[C@H](COC[C@H](O)CN2C(=O)c2cnccn2)O1)N1CCN(c2ccccc2)CC1	4	6	-2.8
CC(C)NC(=O)N1[C@@H]2CNC[C@H]1C2c1ccc(-c2cccc(C#N)c2)cc1 (stereo not given in full)	10&12	9&6	1.2&5.4
COc1ccc2c3c(n(C)c2c1)[C@H](CO)NCC31CCN(Cc2cc(F)ccc2F)CC1	-6	12	-18
CCC(=O)N1C[C@H]2[C@@H](c3ccccc31)[C@@H](CO)N2C(=O)CC	2	4	-2.7
O=C(NCC(F)(F)F)[C@@H]1[C@@H](CO)[C@@H]2Cn3c(ccc(-c4ccncc4)c3=O)[C@@H]2N1Cc1ccncc1	13	10	3.1
Cc1ccc(NC(=O)Nc2ccc3c(c2)C(=O)N(C)[C@H]2CC[C@@H](CC(=O)O)O[C@@H]2CO3)cc1	2	2	0.7

Arranged by value in DUX4 txn inh difference (descending): some entries from above.
SMILES	DUX4 txn inh	DUX4 txn inh difference	DUX4 txn inh control
O=C(Nc1cccc(Cl)c1)N1C[C@H]2[C@@H](c3ccccc31)[C@H](CO)N2C(=O)c1cccnc1	2	8	-5.3
CCC(=O)N1C[C@H]2[C@@H](c3ccccc31)[C@@H](CO)N2C(=O)CC	2	4	-2.7
N#Cc1cccc(-c2ccc([C@H]3[C@@H](CO)N[C@@H]3CNC(=O)C3CCC3)cc2)c1	0	1	-0.8
C[C@@H]1CC(=O)N[C@@H](c2ccccc2)C/C=C\C[C@H](c2ccc3c(c2)OCO3)NC1=O	4	-1	4.8

Going on with the list:
SMILES	DUX4 txn inh	DUX4 txn inh difference	DUX4 txn inh control
C/C=C/c1ccc([C@H]2[C@@H](CO)N(C(=O)C3CCCC3)C23CN(C(=O)NC(C)C)C3)cc1	2	1	1.1
C[C@@H]1CN([C@H](C)CO)C(=O)c2cc(NC(=O)NC3CCCCC3)ccc2O[C@@H](C)CCCCO[C@H]1CN(C)Cc1ccc(C(=O)O)cc1	2	-2	3.8
CCS(=O)(=O)NCC[C@H]1CC[C@H](NS(=O)(=O)c2ccccc2C)[C@@H](CO)O1	1	-3	3.8
O=C(C[C@H]1CC[C@@H]2[C@H](COC[C@@H](O)CN2C(=O)c2ccccn2)O1)NC1CCC1	9	4	4.5
Cc1cccc(S(=O)(=O)N2CC[C@@H]3[C@H]2c2cc(-c4ccccc4F)ccc2N(C)[C@H]3CO)c1	-2	-2	0.5
O=C(CCN1CCCCC1)N[C@@H]1CC[C@@H](CC(=O)N2CCC(Cc3ccccc3)CC2)O[C@H]1CO	?	.	.
CCC(=O)Nc1ccc2c(c1)OC[C@@H](C)N(C(=O)C1CC1)C[C@H](C)[C@H](OC)CN(C)C2=O	2	4	-2.4
CC(C)C#Cc1ccc([C@H]2[C@H]3CN(C(=O)c4ccc5c(c4)OCO5)CC(=O)N3[C@H]2CO)cc1	-8	-9	1.1
COc1ccc(S(=O)(=O)N[C@H]2C=C[C@H](CC(=O)N3CCC(Cc4ccccc4)CC3)O[C@H]2CO)cc1	-5	-3	-2.8
C[C@@H](NC(=O)C[C@@H]1C[C@H]2c3cc(NC(=O)c4ccc5c(c4)OCO5)ccc3O[C@H]2[C@H](CO)O1)c1ccccc1	?	.	.
C[C@@H]1CN([C@H](C)CO)C(=O)c2ccccc2-c2ccccc2CO[C@@H]1CN(C)S(=O)(=O)c1cccc(C#N)c1	6	2	4.3
O=C(NCc1cccc(F)c1)[C@H]1[C@H](CO)[C@H]2Cn3c(ccc(-c4cccnc4)c3=O)[C@@H]1N2CC1CC1	7	7	0.3

6 successive compounds already listed, quoted:
SMILES	DUX4 txn inh	DUX4 txn inh difference	DUX4 txn inh control
CCC(=O)Nc1ccc2c(c1)OC[C@@H](C)N(C(=O)C1CC1)C[C@H](C)[C@H](OC)CN(C)C2=O	2	4	-2.4
CC(C)C#Cc1ccc([C@H]2[C@H]3CN(C(=O)c4ccc5c(c4)OCO5)CC(=O)N3[C@H]2CO)cc1	-8	-9	1.1
COc1ccc(S(=O)(=O)N[C@H]2C=C[C@H](CC(=O)N3CCC(Cc4ccccc4)CC3)O[C@H]2CO)cc1	-5	-3	-2.8
C[C@@H](NC(=O)C[C@@H]1C[C@H]2c3cc(NC(=O)c4ccc5c(c4)OCO5)ccc3O[C@H]2[C@H](CO)O1)c1ccccc1	?	.	.
C[C@@H]1CN([C@H](C)CO)C(=O)c2ccccc2-c2ccccc2CO[C@@H]1CN(C)S(=O)(=O)c1cccc(C#N)c1	6	2	4.3
O=C(NCc1cccc(F)c1)[C@H]1[C@H](CO)[C@H]2Cn3c(ccc(-c4cccnc4)c3=O)[C@@H]1N2CC1CC1	7	7	0.3

Continued.
SMILES	DUX4 txn inh	DUX4 txn inh difference	DUX4 txn inh control
CN1c2ccc(-c3cccc(F)c3)cc2[C@@H]2[C@@H](CCN2C(=O)Cc2ccccc2)[C@H]1CO	?	.	.
CN(C)CC(=O)N1[C@H](C#N)[C@H](c2ccc(-c3cccc(C(=O)N(C)C)c3)cc2)[C@H]1CO	4	0	4.0
CO[C@H]1CN(C)C(=O)c2cc(NS(=O)(=O)c3ccc(F)cc3)ccc2OC[C@@H](C)NC[C@H]1C	-5	0	-4.9
C[C@@H]1CN([C@H](C)CO)C(=O)Cc2cc(NC(=O)Cn3cnnn3)ccc2O[C@H]1CN(C)CC1CCCCC1	0	-1	1.1
COc1cccc(-c2ccc3c(c2)[C@@H]2[C@@H](CCN2C(=O)C2CCCCC2)[C@@H](CO)N3)c1	?	.	.
N#C[C@H]1[C@H](c2ccc(C3=CCCCC3)cc2)[C@@H](CO)N1S(=O)(=O)c1cccc(F)c1	-5	-6	1.2
O=C(C[C@H]1C[C@H]2c3cc(NC(=O)CC4CC4)ccc3O[C@H]2[C@H](CO)O1)NCc1ccc(Cl)cc1	6	6	-0.3

Assay outcomes (PubChem)

A portion of the library; the hit share may differ from the screen's.
